Ecoli rRNA inh: inhibits bacterial ribosomal RNA function over humanized ribosomes. E. coli WT GFP vs humanized-ribosome RFP mutants, fluorescence, 24 h; hits give low values; DMSO median 0, no signal -100. GFP signal change (wild-type ribosome), % (test concentration not listed). hit rate 1.6% among 350,000;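 active = significant combined selectivity score with lowered wild-type GFP, culture density cut under 30%, mutant RFP and density less affected; inactive = any of these conditions unmet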; note: one replicate is shown; some compounds called inactive have numbers as strong as hits
Vif A3G: inhibitors of Vif binding to APOBEC3G peptide, primary screen, biochemical, TR-FRET, GST-Vif 1-94, biotin-A3G peptide, dose response retest (AID 1117319). TR-FRET GST-Vif / biotin-A3G peptide binding; higher % means a stronger effect; test concentration not given here; strong numbers were not always called active. one-dose inhibition, %; IC50 in µM for titrated hits. hit rate 0.57% among 260,000;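 active = above the screen mean plus three standard deviations and confirmed in dose response; inconclusive = results disagree or hit not tested in dose response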;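 note: Vif residues 1-94 fused to GST binding biotinylated APOBEC3G peptide 110-148; 0% = full assay without inhibitor and 100% = GST in place of GST-Vif; retest series ran down from 100 µM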
Calb FLC: affects C. albicans growth with fluconazole | growth inhibition, % (concentration not given with the values) | C. albicans CaCi-2 (fluconazole-resistant clinical isolate) + fluconazole, Alamar Blue growth, 48 h | hit rate 0.57% among 300,000;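 active = most replicates above 75%; inconclusive = exactly half above 75%; inactive = most below 75%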;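 note: all wells also contain fluconazole at 8 µg/ml as a sub-toxic cotreatment; 0% = median of DMSO wells and 100% = median of geldanamycin control wells; wells of about 8 µL received 7.5 nL stock; the first replicate is given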
RanGTP-Imp inh: inhibitors of RanGTP-importin-beta interaction, primary screen, biochemical, FRET, CFP-Ran, YFP-importin-beta, homogeneous; AID 2216; inhibition, % (concentration not given with the values); cell-free CFP-Ran/YFP-importin-beta FRET ratio; hit rate 1.1% among 300,000;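 active = most replicates above 15%; inconclusive = exactly half above 15%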;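 note: 0% = DMSO wells and 100% = Ran loaded with GDP instead of GTP; wells of about 40 µL received 100 nL stock; the first replicate is given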
T cruzi inh: T. cruzi replication inhibition; hit rate 1.4% among 300,000; T. cruzi beta-gal in NIH3T3, luminescence, 90 h; inhibition, % (concentration not given with the values);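 active = mean inhibition across valid replicates above about 55%, limit read from the data; inconclusive = mean below that limit but half or more replicates reach it; inactive = mean below it, under half of replicates reach it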;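 note: signal also drops with host cell toxicity which is not excluded here; 0% = plate median of DMSO wells and 100% = zero luminescence signal; higher percent means less beta-gal luminescence so fewer parasites; stock transfer was 50 nL into about 50 µL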
Bfl-1 A1 inh: inhibitors of the anti-apoptotic protein A1, read as caspase activation | MEF A1-2A-BIM cells, Caspase-Glo 3/7 luminescence, 3 h; percent of clofoctol response, vehicle zero | caspase activation, % (test concentration not listed) | hit rate 0.066% among 330,000 | AID 2462;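 active = over half of replicate activation scores above 10%, or exactly half above 10 with the replicate mean above 10; inconclusive = replicate mean below 10 yet half the replicates above 10; inactive = over half of replicates below 10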;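 note: wells of about 30 µL received 50 nL stock; many hits fall short of the cut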
MLL AF4-AF9 inh: inhibitors of human MLL-AF4/AF9 interaction; AlphaScreen, biotin-AF4 peptide binding to FLAG-AF9; hit rate 0.47% among 350,000; inhibition, % at 10 µM; P42568;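 active = every replicate reaching a set inhibition limit, whatever the replicate mean, cut at about 25% in these data; inconclusive = mean inhibition reaches that limit but some replicates miss it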;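 note: 0% = plate neutral control median and 100% = total signal loss; the record names both 10 and 1 µM as test concentration; the first replicate is given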
Target sequence (P42568 whole entry, looked up): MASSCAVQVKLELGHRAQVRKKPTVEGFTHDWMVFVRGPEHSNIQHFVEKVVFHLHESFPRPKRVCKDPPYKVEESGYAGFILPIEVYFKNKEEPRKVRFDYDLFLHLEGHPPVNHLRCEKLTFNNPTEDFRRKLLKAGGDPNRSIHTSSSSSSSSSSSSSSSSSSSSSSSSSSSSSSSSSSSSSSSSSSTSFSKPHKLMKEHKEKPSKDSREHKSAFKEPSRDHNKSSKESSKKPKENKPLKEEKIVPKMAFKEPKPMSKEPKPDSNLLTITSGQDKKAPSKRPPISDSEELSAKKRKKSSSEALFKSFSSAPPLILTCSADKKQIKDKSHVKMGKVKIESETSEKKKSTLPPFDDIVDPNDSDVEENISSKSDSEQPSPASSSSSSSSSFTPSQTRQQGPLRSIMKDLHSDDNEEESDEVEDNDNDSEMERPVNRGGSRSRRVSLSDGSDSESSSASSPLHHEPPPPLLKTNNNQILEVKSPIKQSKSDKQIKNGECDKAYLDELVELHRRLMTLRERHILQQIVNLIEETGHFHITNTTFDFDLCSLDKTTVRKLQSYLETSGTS
Beta cell apopt: blocks beta cell apoptosis. AID 435005. protection from apoptosis, % (no concentration beside the values). hit rate 0.8% among 300,000. INS-1E cytokine-induced death, ATP luminescence, 48 h; percent of positive-control rescue, neutral wells zero;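 active = all replicates at 75% or more, or half of them and the mean; inconclusive = half reach 75% but not the mean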;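 note: 0% = cytokine-treated negative control wells and 100% = positive control rescue; higher means more ATP so stronger rescue from cytokine killing; wells of about 40 µL received 100 nL stock; the first replicate is given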
Ecoli rRNA inh OD600: second read-out of Ecoli rRNA inh, no call of its own (marks repeat the call); OD600 change, %; measured here: OD600 growth;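 optical density of the mix in the first replicate; 0 = DMSO median and -100 = no signal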
Ecoli rRNA inh RFP: also measured in Ecoli rRNA inh; calls as there; RFP signal change, %; measured here: RFP humanized mutant strains;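 first replicate; 0 = DMSO median and -100 = no signal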
The depositor's hits bear a star; ? = inconclusive; . = no result given; & = joins results of further samples. These rows are one share of the data; count on the stated rates, not on these rows.

SMILES	Ecoli rRNA inh	Ecoli rRNA inh OD600	Ecoli rRNA inh RFP	Vif A3G	Calb FLC	RanGTP-Imp inh	T cruzi inh	Bfl-1 A1 inh	MLL AF4-AF9 inh	Beta cell apopt
COc1cccc(COC(=O)C2CCN(S(=O)(=O)c3cccs3)CC2)c1OC	-3	-6	-2.3	0%	-4	8.8	1	-0.4	-3.1	-2
O=C(CN1CCOCC1)NN=C1CCCCCCCCCCC1	22	26	-5.2	-5%	8	-5.0	-27	0.0	3.4	-8
Cc1ccc(C(=O)NC2CCCCC2)cc1S(=O)(=O)N1CCCC1	2	-5	0.5	-10%	3	1.6	5	2.5	1.8	-9
COc1ccccc1C(=O)NC(CCSC)C(=O)NC1CCCCCC1 (centres undefined)	6	1	-0.9	-3%	-32	-2.9	4	-0.8	-1.1	-2
O=C(O)CCc1nn2c3ccccc3n(CC(=O)c3ccccc3)c2nc1=O	.	.	.	5%	-3	-1.9	-17	0.8	.	0
CN(C)S(=O)(=O)Oc1ccsc1C(=O)Nc1cccc(Cl)c1	.	.	.	2%	25	-3.7	12	-0.3	.	-1
Cc1c(CC(=O)O)c(=O)oc2c(C)c3occ(-c4ccccc4)c3cc12	-38	-60	-8.8	0%	39	19*	-11	-0.7	-6.7	-6
O=C(Cn1cnc2c(oc3ccccc32)c1=O)NCc1ccccc1	4	3	1.0	?	-8	0.6	-3	-0.2	-7.3	.
COc1ccnc(Nc2ccc(C)c(C)c2)c1C#N	15	9	3.7	-6%	-6	-2.5	1	0.5	.	.
COc1cccc(C2=NN(C(=O)CCCC(=O)O)C(c3cccs3)C2)c1 (centres undefined)	-2	2	9.5	6%	4	1.8	-16	0.9	-8.4	-4
COc1ccc(CCNc2oc(-c3cccc4ccccc34)nc2P(=O)(OC)OC)cc1OC	-20	-26	18	-7%	-3	1.9	2	-0.6	5.0	0
CCn1c(NCc2ccco2)nc2c1c(=O)n(C)c(=O)n2C	.	.	.	4%&16%	12	1.6	-18	-0.3	.	3
CCN(CC(=O)NCc1cccs1)S(=O)(=O)c1ccc([N+](=O)[O-])cc1	4	5	-4.1	0%	0	3.1	0	-0.5	-1.7	-11
Cc1ccc(C(=O)N/C(=C\c2ccc(Br)cc2)c2nc(=S)[nH][nH]2)cc1	-25*	-17*	1.7*	5%	38	28*	7	0.6	-1.1	-9
O=C(NCC1CCCO1)C1CCN(S(=O)(=O)N2CCCC2)CC1 (centres undefined)	.	.	.	0%	2	-0.6	-1	0.0	.	2
COc1ccc(OC)c(C(c2nnnn2C2CCCC2)N2CCN(c3ccccc3F)CC2)c1 (centres undefined)	.	.	.	3%&-6%	8	2.9	9	0.7	.	4
O=C1/C(=C\c2ccc(-c3ccccc3Cl)o2)SC(=S)N1CC1CCCO1 (centres undefined)	.	.	.	?	-2	0.2	21	-0.3	.	-10
C=CCN(Cc1cc(OC)ccc1OC)C(=O)c1cc2ccc(OC)cc2[nH]1	-1	-11	-11	-8%	-1	1.7	18	0.8	1.6	11
COc1ccc(Cl)cc1NC(=O)CN(C)C(=O)C1CCN(C(=O)Nc2ccccc2)CC1	0	3	4.1	4%	.	.	.	0.2	-2.3	5
CCOC(=O)c1c(NC(=O)C2Cc3ccccc3C(=O)O2)sc2c1CCCC2 (centres undefined)	6	3	2.0	.	104*	-2.3	-4	-0.8	-4.1	3
O=C(CCN1C(=O)c2ccccc2C1=O)Nc1cccnc1	.	.	.	30%	-8	-2.5	-1	-0.2	.	.
CCN(CC)c1ccc(N2C(=NC(=O)C3CCCO3)SC3CS(=O)(=O)CC32)cc1 (centres undefined)	5	5	-1.6	.	-4	3.6	2	-0.7	0.0	5
COc1ccc(OC)c(NC(=O)CS(=O)(=O)c2ccccc2)c1	.	.	.	6%	0	1.5	-13	0.5	.	3
CN(C)c1ccc(N2C(=NC(=O)CCc3ccccc3)SC3CS(=O)(=O)CC32)cc1 (centres undefined)	21	-5	0.3	3%	17	2.3	1	1.6	-16	1
O=C(OCC(=O)c1cccs1)c1ccc(NC(=O)c2ccco2)cc1	.	.	.	14%	-12	-2.5	4	-0.4	.	-9
Carrying on:
SMILES	Ecoli rRNA inh	Ecoli rRNA inh OD600	Ecoli rRNA inh RFP	Vif A3G	Calb FLC	RanGTP-Imp inh	T cruzi inh	Bfl-1 A1 inh	MLL AF4-AF9 inh	Beta cell apopt
CC1(C)CC2(C)Nc3ccccc3N2C(=S)N1 (centres undefined)	.	.	.	-5%	-6	-1.6	2	0.0	.	5
O=C(NCc1ccc2c(c1)OCO2)C1CC(=O)N(CCc2ccccc2)C1 (centres undefined)	9	14	1.5	-1%	-5	3.9	0	1.2	-6.7	.
C=CCn1c(CNc2ccccc2)nnc1SCC(=O)N/N=C/c1ccc(O)cc1O	.	.	.	1%	-1	2.7	15	0.5	.	0
Cc1c(Cc2ccccc2)c(=O)oc2c(C)c(OCC(=O)NCc3ccccn3)ccc12	9	1	1.1	.	0	-1.2	9	-0.2	-2.1	0
CC(C)CCn1cnc2c(sc3nc4c(cc32)CSC(C)(C)C4)c1=O	8	13	1.2	.	2	-0.5	1	-0.4	1.6	-5
Cc1cccc(Cc2c(C)nc3nc(SCC(=O)NCc4ccco4)nn3c2C)c1	.	.	.	-1%&-5%	-27	-2.0	30	-0.4	.	-1
CCCOc1cccc(C(=O)N(Cc2cccs2)C2CCS(=O)(=O)C2)c1 (centres undefined)	.	.	.	-1%	-3	-2.7	9	1.0	.	1
O=C(O)/C=C/c1ccc2noc(-c3ccccc3)c2c1	8	-7	-3.4	-2%	12	-0.3	-5	-0.8	4.2	-13
CCOC(=O)N1CCC(NC(=O)c2cnn3ccccc23)CC1	11	8	-1.2	2%	-1	-3.9	0	0.2	-1.1	-3
COc1ccc(C2CC(=O)Nc3cc(OC)c(OC)cc32)cc1Br (centres undefined)	-11	-16	-1.4	.	-5	-0.9	5	-1.4	-7.6	3
COc1cccc2cc(C(=O)Nc3ccccc3C)/c(=N/NS(=O)(=O)c3ccccc3)oc12	10	4	-2.5	.	-3	-1.0	-2	1.2	-0.3	-1
O=C1c2cccnc2Nc2ccccc2N1CCCF	.	.	.	6%	-4	4.8	.	0.0	.	-2
CCn1cc(C(=O)O)c(=O)c2cnc(N3CCN(C(=S)NC(=O)c4ccccc4Cl)CC3)nc21	.	.	.	-10%	1	?	-15	0.3	.	-9
CCOC(=O)C1CCCN(C(=O)c2cn(C)c(=O)c3cc(OC)c(OC)cc23)C1 (centres undefined)	.	.	.	1%	-3	?	3	0.8	.	-2
Cc1cc(C)cc(NS(=O)(=O)c2csc(C(N)=O)c2)c1	2	3	0.6	.	5	7.1	5	1.5	-1.1	0
O=C(CN1C(=O)COc2ccc(Cl)cc21)N1CCOCC1	12	14	1.1	3%	3	0.0	-6	0.5	-1.0	0
CCOC(=O)c1c(C)oc2cc(Br)c(OC)cc12	.	.	.	-3%	?	0.4	3	-0.1	.	4
CN(C)S(=O)(=O)c1ccc2nnn(OCC(=O)NC34CC5CC(CC(C5)C3)C4)c2c1	.	.	.	27%	-2	3.3	8	-0.4	.	4
CC(C)c1ccc2c(c1)C(N1CCNCC1)Cc1ccc(F)cc1S2 (centres undefined)	-49	-61	-9.0	.	70	1.3	.	0.1	12	116*
Cc1nnc(SCC(=O)Nc2ncc(Cc3ccc(F)cc3)s2)n1N	.	.	.	0%	-13	1.8	-13	-1.2	.	0
CC(=O)N1CCc2cc(S(=O)(=O)CCC(=O)N(C)c3cc(C)ccc3C)ccc21	-6	3	0.7	-2%	5	5.7	15	0.4	1.5	2
C=CCN(CC=C)S(=O)(=O)c1ccc(NC(=S)NC(=O)Cc2ccc(OC)cc2)cc1	.	.	.	2%	?	-1.5	5	-2.0	.	-8
Cc1ccccc1C(=O)O/N=C1\CCS(=O)(=O)c2sccc21	.	.	.	1%	-6	2.6	-8	-1.1	.	-7
COc1ccc(Nc2nc(N)nc(CN3CCc4ccccc4C3)n2)cc1	16	2	-0.3	8%	0	-3.2	-1	0.1	2.7	1
CSc1ccccc1NC(=O)CN(C)CC(=O)c1c(C)[nH]c2ccccc12	-21*	-13*	1.9*	-5%	.	.	.	2.3	2.8	-2
Next part:
SMILES	Ecoli rRNA inh	Ecoli rRNA inh OD600	Ecoli rRNA inh RFP	Vif A3G	Calb FLC	RanGTP-Imp inh	T cruzi inh	Bfl-1 A1 inh	MLL AF4-AF9 inh	Beta cell apopt
CCCC(=O)N(CCN1CCOCC1)c1nc2c(OCC)cccc2s1	.	.	.	4%	0	-5.0	0	2.2	.	-7
COc1ccc(/C=N/NC(=O)CSCc2ccc([N+](=O)[O-])cc2)cc1OC	.	.	.	-1%	7	0.9	-3	0.7	.	-3
CC(C)c1cc(C(C)C)c(S(=O)(=O)N2c3ccccc3[C@@]3(Br)C[C@H]4C(=O)N[C@@H](Cc5ccccc5)C(=O)N4[C@@H]23)c(C(C)C)c1	.	.	.	.	1	1.3	55*	-0.7	.	.
C=CCN1C(=O)/C(=C\c2cc(Br)c(OCc3ccccn3)c(OC)c2)SC1=S	19	12	3.3	13%	-5	2.2	-9	-0.7	-5.0	-4
COc1cccc(Cn2c(=O)c3[nH]cnc3n(-c3ccccc3C)c2=O)c1	.	.	.	.	-11	0.7	4	0.2	1.2	-4
O=C(CCCOc1ccc(Cl)cc1Cl)Nc1ccc(O)cc1C(=O)O	3	2	2.1	25%	8	6.3	4	-0.7	-5.7	-6
CCOC(=O)c1c(C)[nH]c(C(=O)OCc2ccccc2)c1C	-3	14	-0.7	.	20	?	14	-1.9	0.8	1
Cc1ccc(NC(=O)c2ccc3c(c2)CCN3S(C)(=O)=O)c(C)c1	-1	-2	5.2	7%	3	-1.0	-12	-0.3	6.3	7
S=C(NCCc1ccccn1)Nc1cccc(Cl)c1	3	-3	-7.8	1%	-1	1.7	-6	0.1	-4.8	1
CC(=O)c1c(OCC(=O)O)ccc2c(C)cc(=O)oc12	.	.	.	-4%	5	?	-9	-0.1	.	-7
COc1ccc2c(OC)c3ccoc3nc2c1OC	.	.	.	7%	6	0.3	1	0.2	-14	-9
Cc1cnc(C(=O)Nc2ccc(C)c(S(=O)(=O)N3CCCCC3)c2)cn1	10	17	-1.5	.	.	.	.	-1.5	-1.0	-5
COc1ccc(O)c(CN2CCC(n3nccc3NC(=O)c3ccccc3Cl)CC2)c1	13	10	4.8	6%	-1	-3.0	36	-1.0	3.7	1
Cn1c(=O)c2[nH]c(SCC(=O)c3ccc(F)cc3)nc2n(C)c1=O	-2	-6	-3.2	-9%	2	6.7	-2	0.5	.	.

Bioassay records as filed in PubChem BioAssay.
